Compound activity: PubChem, several laboratories
Rce1 inh = yeast Ras-converting enzyme inhibition; yeast membranes, quenched prenylated peptide cleavage fluorescence; calls only; actives 0.27% (n = 290,000); AID 2563;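 active = fall in fluorescence gain of 50% or more versus controls, with final raw signal at or below 3038400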;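 also: plate controls were neutral control wells for no effect and wells lacking membranes for full effect; tested at 10 µM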
Target sequence (Q03530 whole entry, looked up): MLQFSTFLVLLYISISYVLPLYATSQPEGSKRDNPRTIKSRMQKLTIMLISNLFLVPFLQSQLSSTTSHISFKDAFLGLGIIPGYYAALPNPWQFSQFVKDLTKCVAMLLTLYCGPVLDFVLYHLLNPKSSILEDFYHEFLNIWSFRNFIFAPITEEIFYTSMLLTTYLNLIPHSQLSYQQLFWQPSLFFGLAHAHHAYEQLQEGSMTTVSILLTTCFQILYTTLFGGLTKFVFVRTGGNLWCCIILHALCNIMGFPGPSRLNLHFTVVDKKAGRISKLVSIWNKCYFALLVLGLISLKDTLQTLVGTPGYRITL
CSC inhib = cancer stem cell inhibition; cancer stem cell-like cells viability, luminescence; inhibition, % at 7.5 µM; actives 1.1% (n = 300,000); AID 2717;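 active = mean at 75% or more and at least half the replicates too; tested in HMLE shEcad cells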;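 also: 0% = median of negative and 100% = median of positive control wells; the first replicate is given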
MT1-MMP act inh = inhibitors of human MT1-MMP activation. P50281. HT1080 RFP-PRO-GFP cells, GFP/RFP ratio fluorescence, overnight; percent of plate control window, DMSO zero. GFP/RFP ratio change, % at 20 µM. actives 0.061% (n = 360,000). AID 651647;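 active = GFP/RFP ratio change of at least 30% with cell ATP level not reduced by more than half and red fluorescence within 50% of control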; also: strong numbers were not always called active
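Material – HT1080 RFP-PRO-GFP cells · Control set – DMSO wells and RFP-L50D-GFP cells · Incubation – overnight cell settling, then overnight compound exposure, 37 °C, 5% CO2 · Compound dosing – single-point 20 µM compound, 1% DMSO · Read-out – GFP/RFP fluorescence ratio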
eIF4H FP inh = inhibitors of RNA binding by human eIF4H; eIF4H fluorescence polarization binding assay; inhibition, % at 35 µM; actives 0.94% (n = 290,000);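 active = 50% or more with normal probe brightness, or confirmed in later tests; about a fifth of its hits are not listed in these tables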;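 also: calls also rest on retests at 20 µM and on dose response follow-up; 0% = protein and probe with vehicle and 100% = probe without protein; strong numbers were not always called active; many hits fall short of the cut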
HIV Env fusion = inhibitors of HIV Env-mediated cell fusion; HeLa-JRFL Env/CEM21 cell fusion, luciferase; inhibition, % at 12.3 µM; actives 1.1% (n = 360,000);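 active = mean replicate inhibition score of at least 50 and every replicate individually at or above 50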;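 also: 0% = plate neutral controls and 100% = maraviroc near 300 nM; one replicate is shown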
Yeast UUG start = modulators of start codon recognition fidelity in yeast; S. cerevisiae UUG-firefly luciferase reporter, luminescence/redox ratio; activity score, % at 18.7 µM; actives 0.13% (n = 350,000);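 active = replicate mean at a twofold rise or more, about +100% in these data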;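 also: firefly luciferase made from a UUG start codon reports start codon fidelity; reporter light over untreated wells divided by growth signal over untreated wells; some hits fall short of that in this replicate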
PABP polyA inh = blocks human PABP binding to poly(A) RNA. P11940. actives 1% (n = 290,000). inhibition, % at 35 µM. fluorescence polarization;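 active = 50% or more with normal probe brightness, or confirmed in later tests; about a fifth of its hits are not listed in these tables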;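 also: calls also rest on retests at 20 µM and on dose response follow-up; controls were probe without protein and protein plus probe with vehicle; some compounds called inactive have numbers as strong as hits; many hits fall short of the cut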
MT1-MMP act inh RFP = second read-out of MT1-MMP act inh, no call of its own (marks repeat the call); RFP signal change, %; measured here: RFP expression control read;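 0 = vehicle wells; hits needed this value within 50% of zero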
An asterisk follows results filed as active; i = inactive; · = no result given; + = active, no number.

molecule | Rce1 inh | CSC inhib | MT1-MMP act inh | MT1-MMP act inh RFP | eIF4H FP inh | HIV Env fusion | Yeast UUG start | PABP polyA inh
Fc1ccc(CSc2nc3ncccc3[nH]2)cc1 | i | -6 | -4 | -2 | -3 | · | -17 | -10
O=C(c1ccc(Cl)cc1)N1CCCC(C(=O)N2CCCCC2)C1 (stereo not drawn) | i | 4 | -3 | -2 | -6 | 1 | -2 | -5
O=C(Nc1ccnn1C1CCN(C(=O)c2ccc(Cl)cc2)CC1)C1CC1 | i | -13 | 0 | 4 | -14 | 12 | -9 | -7
O=C(NCc1cccc(C(F)(F)F)c1)C1CCCN(c2cnccn2)C1 (stereo not drawn) | i | -4 | -6 | -6 | -13 | 2 | -16 | -2
CCCc1nc(SCC(=O)Nc2nnc(CC)s2)c2c(=O)n(C)c(=O)n(C)c2n1 | i | -5 | -15 | -22 | -3 | 4 | -8 | -2
CCOC(=O)C1CCN(C(=S)Nc2ccc(CC)cc2)CC1 | i | -7 | 7 | 2 | 2 | -7 | -21 | 3
O=C(CSc1ccc(-c2ccc(F)cc2)nn1)N1CCOCC1 | i | 1 | -4 | -4 | -5 | 8 | · | -5
O=C(CCN1C(=O)c2ccccc2S1(=O)=O)Nc1ccc(Cl)cc1 | i | 3 | 2 | -3 | -2 | -2 | 3 | 3
O=C(NC1CCCC1)C(c1ccc(F)cc1)N(C(=O)c1csnn1)c1ccccc1 (stereo not drawn) | i | -1 | -2 | 1 | -12 | 20 | -13 | 10
Cc1ccccc1OCC(=O)Nc1ccc(N2CCN(S(C)(=O)=O)CC2)cc1 | i | 4 | 1 | 3 | -2 | 3 | 22 | -1
CCC(C)NCCOCCOc1ccc(C)cc1Br (stereo not drawn) | i | 13 | 8 | 1 | 2 | 6 | -18 | 8
O=C(c1ccc2c(c1)OCCO2)C1CCN(C(=O)Nc2ccc(F)cc2)CC1 | i | -11 | -1 | -1 | -4 | 8 | -4 | -7
COCCn1c(=N)c(S(=O)(=O)c2ccc(F)cc2)cc2c(=O)n3ccccc3nc21 | i | -4 | 1 | 1 | -5 | 11 | -8 | 4
COc1ccc(OC)c(NC(=O)C2(C)CCN2Cc2ccsc2)c1 (stereo not drawn) | · | · | 2 | -8 | · | 9 | 6 | ·
COc1ccc(OC)c(C2C(C(=O)c3ccco3)=C(O)C(=O)N2CC2CCCO2)c1 (stereo not drawn) | · | 0 | -2 | 1 | -14 | 9 | -13 | 13
C=CCC[C@H](Cc1ccc(F)cc1)C(=O)OC[C@H](Cc1c[nH]c2ccccc12)NC(=O)[C@@H](CC=C)CC(=O)N(CCO)Cc1ccccc1 | · | 68 | -13 | -21 | · | 25 | -23 | ·
Cc1cc(C)cc(NC(=S)N2CCC(NC(=O)C3CCCCC3)CC2)c1 | i | -10 | -3 | -2 | -2 | -2 | -12 | 3
O=C(CCN1C(=O)/C(=C/c2cccs2)SC1=S)Nc1ccccc1O | i | 12 | -2 | 6 | 29 | 7 | -10 | 0
O=C(NCCCN1CCOCC1)c1csc2c1CCCC2 | i | -12 | 2 | 4 | -8 | -1 | -5 | 13
COc1ccc(NC(=S)NCCC2=CCCCC2)cc1OC | i | 1 | 0 | -3 | 13 | -11 | · | 4
Cn1c(=O)c2[nH]c(N=NNc3ccccc3F)nc2n(C)c1=O | i | -7 | 3 | 4 | -5 | 25 | · | -3
Cn1c(-c2cnn(-c3ccccc3)c2-n2cccc2)n[nH]c1=S | i | -11 | 2 | 3 | -8 | -59 | · | -6
CN(Cc1ccc(Br)cc1)CC(O)COc1cccc(Br)c1 (stereo not drawn) | i | 19 | 2 | 3 | 2 | 12 | 2 | 10
OC1CCNC(=S)N1c1ccccc1 (stereo not drawn) | i | -14 | 0 | 2 | -2 | -11 | -21 | -11

Further compounds:
smiles	Rce1 inh	CSC inhib	MT1-MMP act inh	MT1-MMP act inh RFP	eIF4H FP inh	HIV Env fusion	Yeast UUG start	PABP polyA inh
O=S(=O)(N1CCCCC1)N1CCN(c2ccccc2F)CC1	i	-11	11	-3	-6	·	11	-10
COc1ccc(CC(=O)Nc2ccc(-c3nc4cc(C)ccc4o3)c(O)c2)cc1OC	i	-4	1	1	-47	·	-23	-69
CCOc1ccc(C2=NNC(c3cccnc3)=Nc3ccc(OC)cc32)cc1	i	6	6	3	-9	6	·	7
O=C(NNc1c2ccccc2nc2ccccc12)c1cccc(O)c1	i	5	13	-1	-10	-8	·	1
CCOC(=O)C(C)Oc1cccc2c(=O)n(CC(=O)NCc3ccco3)ccc12 (stereo not drawn)	i	55	13	-6	-7	·	-18	0
Cc1cc2nn(-c3cccc4ccccc34)nc2cc1NC(=O)c1cccs1	+	22	5	-6	0	33	-11	-6
CC1(C)OC1COc1c2ccoc2cc2oc(=O)ccc12 (stereo not drawn)	i	-7	-4	-5	-9	7	·	-1
COc1ccc(OC)c(C2=NOC(C(=O)N3CCCc4ccccc43)C2)c1 (stereo not drawn)	i	-2	5	5	-1	-7	·	4
O=C(NCc1cccnc1)C1CC(c2ccc(F)cc2)=NO1 (stereo not drawn)	i	-4	1	6	3	·	1	-3
COc1cccc(NC(=O)CCc2nc(-c3ccccc3F)no2)c1	i	-21	6	2	-3	2	-7	-3
CCc1cccc(C)c1NC(=O)N(C)C1CCCCC1	i	-2	2	4	8	-6	-10	-7
COc1ccc(N2C(=O)C3C(C2=O)C2C=CC3C23CC3)c(OC)c1 (stereo not drawn)	·	-7	-4	4	-1	-2	-22	-10
Cc1ccc(-n2c(C)nc3c(cnn3-c3ccc(F)cc3)c2=O)cc1C	i	2	-2	-11	1	-7	-4	-10
Cc1c(C(=O)NCCSCc2c(Cl)cccc2Cl)cccc1[N+](=O)[O-]	i	11	-4	-4	-11	-100	-21	-11
O=C(c1cccs1)N1CCN(c2ncc(Br)cn2)CC1	i	-8	4	0	6	-4	·	11
CN(CC(=O)Nc1cccc(F)c1)C(=O)c1ccccc1OCCOc1ccccc1	i	-11	-2	-3	·	·	·	·
CCOc1ccc(CNS(=O)(=O)c2c(C(=O)N3CCCC3)c(C)n(C)c2C)cc1OC	i	1	-6	-2	1	-2	-1	-2
CN(C)C(CNC(=S)Nc1cccc(Cl)c1)c1ccccc1 (stereo not drawn)	i	-8	6	6	-4	19	·	-8
CN(C)c1ccc(N=Cc2nc(-c3ccccc3)oc2OC(=O)c2cccc(Br)c2)cc1	i	2	-12	0	20	-337	-24	13
CCOC(=O)c1c(NC(=O)Cn2nc(C(F)F)cc2C(F)F)sc(C)c1C	i	1	-1	-6	2	·	-14	6
CN(C)c1cc[n+](CC(=O)Nc2ccc(Cl)cc2)cc1	i	8	5	-11	-6	-10	-1	-2
Cc1ccc(C)c(N2CCN(C(=O)c3ccc(NC4=NC5CS(=O)(=O)CC5S4)cc3)CC2)c1 (stereo not drawn)	i	·	3	0	1	21	-1	0
CCOc1ccc(NC(=O)COc2ccc3c(c2)CCC3)cc1OC	·	14	0	3	·	-2	-11	·
Cc1ccnc(NC(=O)c2ccc3c(c2)NC(=O)C(C)S3)c1 (stereo not drawn)	·	-1	-3	0	·	-71	-47	·
Cc1c(Cl)cccc1NC(=O)Cn1cnc(S(=O)(=O)N2CCCC2)c1	i	-9	5	5	-7	·	8	-6
CC(C)CCNC(=O)NC(=O)COC(=O)CNC(=O)C1CCCCC1	i	-10	4	0	3	-29	8	-1
S=C(c1ccccc1)N1CCN(C(=S)c2ccccc2)CC1	i	5	0	2	10	12	·	-6
CCOC(=O)c1cc(C(=O)c2cc(Br)ccc2O)coc1=N	i	·	-4	-3	-2	-5	·	5
O=c1cc(CSc2ccccc2)nc(-c2ccccc2)[nH]1	i	-9	2	-3	-2	13	·	-17
CCN(CC)CCOC(=O)c1ccc(NC(=O)/C=C/c2cccs2)cc1	i	-6	1	7	-3	19	·	11
C=CCNCC(=O)NN=C(c1ccccc1)c1ccccc1	i	-4	2	-1	3	·	-16	-8
CCCN(Cc1ccccc1)C(=S)Nc1ccc(C(C)=O)cc1	i	4	-2	2	-7	-17	-11	10
COc1ccc2cc(C3(C)NC(=O)NC3=O)ccc2c1 (stereo not drawn)	i	-7	0	5	-2	·	-8	3
CCCN1CCC(=O)N(CCOc2ccccc2)CC1	i	-9	3	8	6	-3	-10	-12
O=C(CCCN1C(=O)/C(=C/c2ccccc2OC(F)F)SC1=S)Nc1cccnc1	·	-13	2	-9	·	9	-4	·
CCc1ccccc1NC(=O)C1C2C=CC(O2)C1C(=O)O (stereo not drawn)	i	-3	-4	1	-6	2	-4	0
COC(=O)CCC(=O)N1CCCC(CNS(=O)(=O)c2ccc(OC)cc2)C1 (stereo not drawn)	i	-14	1	1	0	1	·	6
COc1cccc(C(C(=O)NCC2CCCO2)N(C(=O)Cn2nnc3ccccc32)c2ccc(NC(C)=O)cc2)c1OC (stereo not drawn)	i	6	-5	-3	6	-7	·	12
COc1cccc(/C=C2\SC(=S)N(CCC(=O)Nc3ccc(O)cc3)C2=O)c1	i	15	-9	-9	2	-11	-18	-5
O=C(/C=C/c1ccc(Cl)cc1)N(Cc1cccs1)C1CCS(=O)(=O)C1 (stereo not drawn)	i	-9	0	0	4	15	1	0
Cc1cc(C(=O)OCC(=O)Nc2ccc(S(=O)(=O)N3CCOCC3)cc2)c(C)o1	·	-9	0	0	-10	·	-5	3
Cc1[nH][nH]c(=O)c1C(c1ccccc1[N+](=O)[O-])C(C#N)C#N (stereo not drawn)	i	·	-3	6	24	3	-9	25
O=C(NNC(=O)c1cccs1)c1csc(N2CCOCC2)n1	i	1	·	·	·	4	-10	·
CN(c1ccccc1)S(=O)(=O)c1nnc(NC(=O)C2CCCCC2)s1	i	3	0	0	-4	-8	-11	-5

Entries listed so far with bromine, in the order listed:
smiles	Rce1 inh	CSC inhib	MT1-MMP act inh	MT1-MMP act inh RFP	eIF4H FP inh	HIV Env fusion	Yeast UUG start	PABP polyA inh
CCC(C)NCCOCCOc1ccc(C)cc1Br (stereo not drawn)	i	13	8	1	2	6	-18	8
CN(Cc1ccc(Br)cc1)CC(O)COc1cccc(Br)c1 (stereo not drawn)	i	19	2	3	2	12	2	10
O=C(c1cccs1)N1CCN(c2ncc(Br)cn2)CC1	i	-8	4	0	6	-4	·	11
CN(C)c1ccc(N=Cc2nc(-c3ccccc3)oc2OC(=O)c2cccc(Br)c2)cc1	i	2	-12	0	20	-337	-24	13
CCOC(=O)c1cc(C(=O)c2cc(Br)ccc2O)coc1=N	i	·	-4	-3	-2	-5	·	5

3 compounds from above, ordered by length of the SMILES, low to high.
smiles	Rce1 inh	CSC inhib	MT1-MMP act inh	MT1-MMP act inh RFP	eIF4H FP inh	HIV Env fusion	Yeast UUG start	PABP polyA inh
S=C(c1ccccc1)N1CCN(C(=S)c2ccccc2)CC1	i	5	0	2	10	12	·	-6
CC(C)CCNC(=O)NC(=O)COC(=O)CNC(=O)C1CCCCC1	i	-10	4	0	3	-29	8	-1
COc1ccc(N2C(=O)C3C(C2=O)C2C=CC3C23CC3)c(OC)c1 (stereo not drawn)	·	-7	-4	4	-1	-2	-22	-10
